# Screens as filed in PubChem.
# eIF4H FP inh: inhibitors of RNA binding by human eIF4H | Q15056 | eIF4H fluorescence polarization binding assay | inhibition, % at 35 µM | 290,000 compounds, 0.94% hits | AID 2012;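 active means 50% or more with normal probe brightness, or confirmed in later tests; about a fifth of its hits are not listed in these tables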;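 further: calls also rest on retests at 20 µM and on dose response follow-up; 0% = protein and probe with vehicle and 100% = probe without protein; strong numbers were not always called active; many hits fall short of the cut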
# Rce1 inhib: inhibitors of yeast Ras-converting enzyme | yeast membranes, quenched prenylated peptide cleavage fluorescence | calls only | 290,000 compounds, 0.27% hits;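 active means fall in fluorescence gain of 50% or more versus controls, with final raw signal at or below 3038400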;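 further: plate controls were neutral control wells for no effect and wells lacking membranes for full effect; tested at 10 µM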
# PABP polyA inh: blocks human PABP binding to poly(A) RNA; 290,000 compounds, 1% hits; fluorescence polarization; P11940; AID 2014; inhibition, % at 35 µM;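 active means 50% or more with normal probe brightness, or confirmed in later tests; about a fifth of its hits are not listed in these tables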;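 further: calls also rest on retests at 20 µM and on dose response follow-up; controls were probe without protein and protein plus probe with vehicle; some compounds called inactive have numbers as strong as hits; many hits fall short of the cut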
# Target sequence (P11940 whole entry, looked up): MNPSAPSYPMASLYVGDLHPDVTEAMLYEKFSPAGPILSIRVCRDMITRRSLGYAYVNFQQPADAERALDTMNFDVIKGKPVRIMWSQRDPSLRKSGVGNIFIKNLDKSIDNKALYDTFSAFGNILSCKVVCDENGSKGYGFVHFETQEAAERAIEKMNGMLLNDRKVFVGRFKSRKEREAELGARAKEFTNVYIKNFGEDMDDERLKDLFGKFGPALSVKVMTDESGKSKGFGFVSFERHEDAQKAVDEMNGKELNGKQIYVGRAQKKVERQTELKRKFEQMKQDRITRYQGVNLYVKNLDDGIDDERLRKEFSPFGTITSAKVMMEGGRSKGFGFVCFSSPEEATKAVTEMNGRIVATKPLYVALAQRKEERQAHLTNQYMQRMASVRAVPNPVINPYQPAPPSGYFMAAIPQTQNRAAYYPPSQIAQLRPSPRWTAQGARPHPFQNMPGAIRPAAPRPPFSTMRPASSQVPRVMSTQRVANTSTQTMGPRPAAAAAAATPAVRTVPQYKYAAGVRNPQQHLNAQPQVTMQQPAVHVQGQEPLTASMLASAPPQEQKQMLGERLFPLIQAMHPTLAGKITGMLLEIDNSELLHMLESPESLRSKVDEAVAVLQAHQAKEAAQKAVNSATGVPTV
# CSC inhib: blocks cancer stem cells; cancer stem cell-like cells viability, luminescence; inhibition, % at 7.5 µM; 300,000 compounds, 1.1% hits;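 active means mean at 75% or more and at least half the replicates too; tested in HMLE shEcad cells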;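 further: 0% = median of negative and 100% = median of positive control wells; the first replicate is given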
# Yeast UUG start: modulators of start codon recognition fidelity in yeast. S. cerevisiae UUG-firefly luciferase reporter, luminescence/redox ratio. activity score, % at 18.7 µM. 350,000 compounds, 0.13% hits. AID 602363;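 active means replicate mean at a twofold rise or more, about +100% in these data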;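 further: firefly luciferase made from a UUG start codon reports start codon fidelity; reporter light over untreated wells divided by growth signal over untreated wells; some hits fall short of that in this replicate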
# HIV Env fusion: HIV envelope-mediated fusion inhibition. HeLa-JRFL Env/CEM21 cell fusion, luciferase. inhibition, % at 12.3 µM. 360,000 compounds, 1.1% hits. AID 651610;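 active means mean replicate inhibition score of at least 50 and every replicate individually at or above 50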;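 further: 0% = plate neutral controls and 100% = maraviroc near 300 nM; one replicate is shown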
# MT1-MMP act inh: blocks activation of human MT1-MMP | 360,000 compounds, 0.061% hits | GFP/RFP ratio change, % at 20 µM | HT1080 RFP-PRO-GFP cells, GFP/RFP ratio fluorescence, overnight; percent of plate control window, DMSO zero;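 active means GFP/RFP ratio change of at least 30% with cell ATP level not reduced by more than half and red fluorescence within 50% of control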; further: strong numbers were not always called active
#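 Assay system: HT1080 RFP-PRO-GFP cells | Dosing: 20 µM single dose, 1% DMSO | Incubation: Cells overnight before dosing, compound overnight, 37 °C, 5% CO2 | Evaluation: GFP/RFP fluorescence ratio | Control set: DMSO-only wells and HT1080 RFP-L50D-GFP cell wells as references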
# eIF4H FP inh retest: recorded beside eIF4H FP inh, whose call it bears; inhibition, %; compound at 20 µM; confirmation average;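 mean of two retest wells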
# PABP polyA inh retest: second read-out of PABP polyA inh, no call of its own (marks repeat the call); inhibition, %; compound at 20 µM; confirmation repeats;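 mean of two retest wells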
# MT1-MMP act inh RFP: second read-out of MT1-MMP act inh, no call of its own (marks repeat the call); RFP signal change, %; measured here: RFP expression control read;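 0 = vehicle wells; hits needed this value within 50% of zero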
# Starred values were filed as active, the others as inactive; i = inactive; . = not tested or not shown. The list is partial; rates above refer to the full screens.
SMILES,eIF4H FP inh,Rce1 inhib,PABP polyA inh,CSC inhib,Yeast UUG start,HIV Env fusion,MT1-MMP act inh,MT1-MMP act inh RFP,others
O=C(COC(=O)c1ccc([N+](=O)[O-])o1)NC1CCCC1,.,.,.,1,1,-7,2,1,
COc1ccc(NC2CCCN(C(=O)CCc3scnc3C)C2)cc1 (stereo not given),8,i,14,3,-7,-114,-3,1,
CCOC(=O)c1ccc(NC(=O)CSc2nnc(COc3ccccc3)n2C)cc1,-12,i,-6,-1,-23,.,-3,4,
CCOC(=O)CSc1nc2cc3c(cc2cc1C#N)OCO3,3,.,-6,-3,4,-381,-10,-3,
Clc1ccccc1OCCn1cnc2ccccc21,-2,i,6,.,-29,-86,1,-2,
CC(=O)c1cccc(NC(=O)CCC(=O)c2ccc(F)cc2)c1,4,i,-2,.,-9,0,11,9,
COc1ccc(C2C3=C(CCCC3=O)Nc3c(-c4ccccc4)c(C)nn32)cc1 (stereo not given),0,i,5,3,11,.,6,-4,
COc1cc2c(cc1OC)N1C(=O)CC(OCC(=O)O)C3C4CC5(CCN5C(=O)C4=O)C2C31 (stereo not given),8,i,5,-11,.,-6,0,4,
O=S(=O)(Nc1ccc(-c2ccc3nncn3n2)cc1)c1ccc(Cl)s1,.,i,.,1,.,5,-2,8,
Nc1nc(-c2ccccc2)cc(C(F)(F)F)n1,6,i,-8,-9,-13,-13,4,-3,
COC(=O)[C@@H](NC(=O)O[C@@H]1C(=O)c2ccc(OC)cc2O[C@H]1c1cccc(C(F)(F)F)c1)C(C)C,2,i,-5,11,.,.,.,.,
CCCCc1ccc(-c2csc(/C(C#N)=C/c3ccc(C)o3)n2)cc1,26,.,11,7,-17,-3,-17,9,
Cc1ccc(C(=O)N(Cc2ccccc2)C(C)(C)C)cc1C,-3,i,6,-5,.,8,-7,-3,
CC(=O)C1=C(O)C(=O)N(CCO)C1c1ccccc1 (stereo not given),-2,i,7,48,1,0,2,1,
CCc1nnc(NS(=O)(=O)c2ccc(NC(=O)c3cc4ccccc4oc3=O)cc2)s1,27,i,-11,.,.,10,.,.,
COC(=O)c1ccc(C(=O)OC)c(NC(=O)C(C)C)c1,-5,i,2,-16,-12,-3,1,-4,
Cc1ccccc1C(=O)NC[C@@H]1CCCN2CCCC[C@H]12,-7,i,4,-13,-4,-13,-1,0,
Cc1ccc(CN(C)C(=O)CCNS(=O)(=O)c2ccccc2)o1,.,.,.,4,5,.,-1,7,
COc1ccc(S(=O)(=O)N(C)c2ccc(C(=O)N3CCCC3)cc2)cc1OC,-1,i,-6,2,-5,25,-1,-3,
COc1cccc(-c2nc(NCc3ccco3)c3ccccc3n2)c1O,-2,i,-6,28,-9,.,6,-2,
O=c1[nH]c2ccc(Br)cc2c(=O)o1,.,.,.,.,-32,-5,4,-2,
COc1ccc2[nH]c3c(=O)n(Cc4ccco4)cnc3c2c1,5,i,-4,-6,-16,-72,-5,-9,
CSCCC1COC(c2cccs2)=N1 (stereo not given),0,i,-6,-8,.,1,-1,1,
COc1cccc(C(=O)CSc2nnc(-c3cc(OC)c(OC)c(OC)c3)o2)c1,9,i,0,20,-15,-1,3,-1,
COc1ccc(N(CC(=O)NCc2ccc(C)cc2)S(=O)(=O)c2c(C)noc2C)cc1,3,i,8,6,-12,3,1,0,
Cc1onc(-c2ccccc2)c1C(=O)/C=C/N(C)C,6,i,5,-2,.,3,-9,0,
O=S(=O)(c1ccccc1)N1CCn2c(nc3ccccc32)C1,7,i,6,-9,-8,-6,0,0,
CC1CC(C)CN(S(=O)(=O)c2ccc(NC(=O)CN3CCCCCC3)cc2)C1 (stereo not given),.,.,.,.,-7,7,2,0,
CC(C)Oc1ccc(C2CNC(=O)C2)cc1 (stereo not given),-9,i,6,-8,-7,-20,0,-2,
CCN1C(=O)c2ccccc2S(=O)c2ccc(C(=O)NCc3ccc(OC)cc3)cc21 (stereo not given),-5,i,-2,.,-4,-9,-4,0,
COCCN(C(=O)c1ccc(-c2ccc(Cl)cc2)o1)c1c(N)n(CC(C)C)c(=O)[nH]c1=O,.,.,.,-11,-3,.,-2,-2,
CCn1nccc1C(=O)Nc1nc2ccccc2n1CCN1CCCCC1,-16,i,2,.,-7,.,-9,1,
c1ccc(N2OCC3Cn4c(nc5ccccc54)C32)cc1 (stereo not given),21,i,35,-14,7,15,2,5,
COCc1ccc(CN2CCCC(CCC(=O)NCc3cccc(OC)c3)C2)o1 (stereo not given),11,i,-3,-14,.,-10,7,3,
CC(=O)c1cccc(NC(=O)C2CCN(S(C)(=O)=O)CC2)c1,-10,i,-7,-3,-5,.,-1,-1,
CCc1ccc(NS(=O)(=O)c2c(C)noc2C)cc1,-16,i,-11,-20,8,17,2,4,
CCCCCCNC(=O)O[C@]12C[C@@H](C(=O)OC)[C@@H](C(=O)OC)C[C@@]1(O)CN(S(=O)(=O)c1ccc(C)cc1)C2,.,.,.,.,-9,-132,-3,1,
Cn1cc(CN2CCc3c([nH]c4ccccc34)C2C2CCCCC2)cn1 (stereo not given),-2,i,3,-31,-11,-10,3,-2,
Nc1c(C(=O)Nc2ccc3c(c2)OCCO3)nnn1Cc1ccc(Cl)cc1,.,i,.,-1,-5,-167,7,0,
Cc1noc(NS(=O)(=O)c2ccc(NS(=O)(=O)c3ccc(C(C)(C)C)cc3)cc2)c1C,.,.,.,.,-1,-89,5,8,
O=C(Nc1cccc(Cl)c1)N1CCN(c2ncccn2)CC1,-7,.,8,0,.,-62,2,-1,
CCOC(=O)c1sc2nc(C)nc(N3CCCCC3C)c2c1C (stereo not given),-4,i,4,29,.,22,-4,-9,
c1ccc(CN2CCC3(CC2)Nc2ccccc2CO3)cc1,4,i,4,-8,-8,7,.,.,
COc1ccc(N2CCN(C(=O)CSc3nnc(-c4ccc5[nH]c(C)c(C)c5c4)o3)CC2)cc1,-6,i,-13,-5,.,.,4,1,
CCN(CC)CCNC(=O)C1CCN(S(=O)(=O)c2c(C)noc2/C=C/c2ccccc2F)CC1,-14,i,-2,-6,6,0,-1,-1,
CC1=CC(C)(C)N=C(Nc2ccc(C)cc2)S1,-10,i,14,-4,-2,-24,4,5,
Cc1ccc2nc(NC(=O)CC3Oc4ccccc4NC3=O)sc2c1 (stereo not given),4,i,-3,-7,-9,8,4,0,
O=C(NCc1ccc2c(c1)OCO2)C(=O)NCC1OCCN1S(=O)(=O)c1ccc(Cl)cc1 (stereo not given),2,i,-4,-14,-12,-6,4,-10,
FC(F)(F)c1cnc(N2CCCN(C(=S)Nc3ccccc3)CC2)c(Cl)c1,1,i,9,10,-21,87*,10,-30,
Cn1c2c(c(=O)c3ccccc31)CCC(C)(C)O2,2,i,0,-4,-12,.,6,5,
CC(=O)Nc1ccc(N/C(N)=N/c2nc(C)cc(C)n2)cc1,4,i,23,0,-16,10,1,3,
O=C(c1ccc([N+](=O)[O-])cc1)N(Cc1ccccc1)c1ccccn1,6,i,13,0,3,-13,3,3,
S=C(Nc1ccc(Cl)cc1Cl)N1CCOCC1,-10,i,-2,-2,.,-11,-7,-2,
COc1cccc(C2=NOC(C(=O)Nc3ccccc3SC)C2)c1 (stereo not given),-5,.,13,2,-12,35,-4,-2,
COc1ccc(CCNC(=O)CSc2ccc(-c3ccccc3)nn2)cc1,0,i,-2,-8,.,.,.,.,
O=C(CC1CCCC1)N1CCCC(Nc2cccc(F)c2)C1 (stereo not given),-9,i,6,-20,8,7,3,-1,
CCN(CC)S(=O)(=O)c1cc(C)c(C)cc1OCC(=O)NC1CCCC1,3,i,17,-5,0,4,-2,-8,
CC(=O)NNC(=S)NC(=O)c1ccc(C)cc1,10,i,-1,.,.,-8,2,4,
COC(=O)c1ccc(CNC(=O)CNc2cc(C(F)(F)F)ccc2N2CCOCC2)cc1,-7,i,3,7,-15,.,-2,2,
Cc1cc(C)cc(NC(=O)CC23CC4CC(C2)CC(n2nnc(C)n2)(C4)C3)c1,1,i,16,0,-3,1,1,-3,

# 2 entries picked at random from the list so far, as already listed:
SMILES,eIF4H FP inh,Rce1 inhib,PABP polyA inh,CSC inhib,Yeast UUG start,HIV Env fusion,MT1-MMP act inh,MT1-MMP act inh RFP,others
O=S(=O)(Nc1ccc(-c2ccc3nncn3n2)cc1)c1ccc(Cl)s1,.,i,.,1,.,5,-2,8,
CC(C)Oc1ccc(C2CNC(=O)C2)cc1 (stereo not given),-9,i,6,-8,-7,-20,0,-2,

# Additional entries.
SMILES,eIF4H FP inh,Rce1 inhib,PABP polyA inh,CSC inhib,Yeast UUG start,HIV Env fusion,MT1-MMP act inh,MT1-MMP act inh RFP,others
CCCNC(=O)COC(=O)c1ccccc1OCC(=O)Nc1ccc(Br)cc1,4,i,-3,-4,-4,.,2,-1,
O=C(c1ccccc1Cl)N1CCN(C(=O)C2CCCO2)CC1 (stereo not given),.,.,.,.,-20,3,4,2,
COC(=O)c1ccccc1NC(=O)c1cc(C)no1,3,i,4,20,-12,-2,-3,1,
Cc1ccccc1-c1csc(N)n1,.,.,.,.,-9,-15,0,-1,
CC1CCN(c2ccc3nnc(CCC(=O)N4CCN(c5ccc(F)cc5)CC4)n3n2)CC1,-9,i,3,-14,-10,5,3,0,
COc1cccc(CNC(=O)C2CCN(S(=O)(=O)c3cnc[nH]3)CC2)c1,0,i,-5,-1,-16,.,-10,1,
CSc1ncccc1C(=O)NCc1ccc(C)cc1,-2,i,-2,-7,.,.,2,2,
CCOC(=O)Cn1nc2oc(=O)c(CCN3CCN(c4ccccc4OC)CC3)c(C)c2c1C,.,.,.,.,-10,-17,4,5,
CCc1cc(=O)oc2cc(OCC(=O)O)c(Cl)cc12,2,i,3,-8,-16,-74,0,2,
CC(C)n1cc(CN2CCC(Oc3ccc(C(=O)N4CCCCC4)cc3)CC2)cn1,10,i,8,-6,-21,17,2,0,
CCOc1ccccc1N1CCN(C(=O)c2c(CC)noc2C)CC1,.,i,.,-6,.,1,-1,-4,
CCCCOc1ccc(NC(=O)C2CC=CCC2C(=O)O)cc1 (stereo not given),15,i,1,-7,-19,.,-2,2,
O=C(c1ccccc1)N1CCC(=O)N1c1ccccc1,-13,i,-2,-16,.,-276,0,8,
Cc1nn(-c2ccccc2)c(C)c1/C=N/NC(=O)c1ccccc1NS(=O)(=O)c1cccs1,-1,i,-8,6,.,-75,8,0,
COc1ccc(NC(=O)CS(=O)CC(=O)NCC2OCCc3ccccc32)cc1 (stereo not given),-12,i,4,-2,.,10,2,6,
CC(C)c1ccc(NC(=O)N2CCC(c3nc4ccccc4o3)CC2)cc1,2,i,-2,12,-14,.,3,1,
O=[N+]([O-])c1ccc(NN=Cc2ccccc2O)nc1,.,.,.,.,5,-61,12,-6,
COC(=O)[C@@H](NC(=O)Nc1ccc(C(C)=O)cc1)C(C)C,57*,i,36,-3,-17,-50,0,1,eIF4H FP inh retest=78*;PABP polyA inh retest=38
CCOC(=O)C1=C(O)/C(=C/c2ccc(OCC(=O)O)c(OCC)c2)SC1=Nc1ccccc1,8,i,4,6,.,-3,1,-1,
O=S(=O)(Nc1cccc(S(=O)(=O)N2CCCC2)c1)c1ccc(Cl)cc1,.,.,.,-12,-8,-22,-1,2,
O=C(CCN1C(=O)c2ccccc2C1=O)NCCCn1ccnc1,-3,i,1,-18,-18,12,-3,7,
